# Screens (PubChem)
# BJeLR viability – MLPCN primary cell-based screen for lethality selective to Ras in HRASV12 cells; BJeLR (HRASV12) viability, CellTiter-Glo ATP luminescence, 48 h; reference of the scale not given here; inhibition, % (concentration not given with the values); hit rate 0.17% among 300,000;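 active = replicate mean above 50%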;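 note: 50 nL library stock added to about 25 µL; numbers are from one replicate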
# PrP 5UTR inh – inhibition of PrP 5' UTR reporter expression; cell-based PrP 5' UTR mRNA reporter, plate reader; hit rate 0.35% among 340,000; inhibition, % (no concentration beside the values);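 active = every replicate at 50% or more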;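 note: 0 = median of the neutral control wells; tested in H4 reporter cells; numbers are from one replicate; inactives centre near -14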
# Mtb hypoxia inh – PubChem AID 1159583; M. tuberculosis hypoxia-regulated fluorescent reporter, fluorescence; fluorescence inhibition, % (concentration not given with the values); hit rate 0.1% among 300,000;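 active = 35 to 45% if threefold the growth effect, above 45% if 1.5-fold the growth effect; inactive = the rest, general growth blockers included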;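 note: wells of about 50 µL received 100 nL stock; 0% = vehicle wells and 100% = reference inhibitor wells; whole bacteria with a GFP reporter of the hypoxia response; strong numbers were not always called active; many hits fall short of the cut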
# Autofluor counter – counter-screen for toxin protease inhibitors: compound fluorescence. AID 624483. compound autofluorescence counterscreen, microsphere flow cytometry; hits give high values. hit rate 3.1% among 360,000. fluorescence intensity (no concentration beside the values);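 active = at least 3 SD above the mean of all compounds, about 16000 in these data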;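 note: 100 nL of 1 mM stock went into each well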
# Sa ugtP lethal – growth inhibition of ugtP-null S. aureus, primary screen, RN4220 ugtP deletion, OD600 | 16 h; some inactives read as strong as hits | growth inhibition, % (concentration not given with the values) | hit rate 0.54% among 330,000 | AID 1259309, 2017;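 active = z-score under -3 and OD600 up to 0.15 on both plates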;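 note: plate controls were untreated wells for no effect and antibiotic for full effect; wells of about 80 µL received 100 nL stock; the first replicate is given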
# Sa RN4220 lethal – growth inhibition of S. aureus RN4220, primary screen, OD600 | 16 h | inhibition, % (test concentration not listed) | hit rate 0.33% among 330,000;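 active = z-score of -3 or lower and OD600 up to 0.18 on both plates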;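 note: plate controls were untreated cells for no effect and reference antibiotic for full effect; stock transfer was 100 nL into about 80 µL; one replicate is shown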
# Mtb hypoxia inh growth – recorded beside Mtb hypoxia inh, whose call it bears; growth inhibition, %; measured here: M. tuberculosis growth (absorbance);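 0% = vehicle and 100% = reference antibiotic; read after six days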
# * marks the source's active call; other numbers are inactive results; . = not tested or not shown. An unsorted share of the library; overall some 4% were active at least once.
SMILES,BJeLR viability,PrP 5UTR inh,Mtb hypoxia inh,Mtb hypoxia inh growth,Autofluor counter,Sa ugtP lethal,Sa RN4220 lethal
COc1ccc(C(=O)Nc2ccc(Nc3ccccc3)cc2)cc1Br,-3,-13,6,0,4131,8,3.7
CC(=O)NC(Cc1c[nH]c2ccccc12)C(=O)NN=Cc1ccccc1 (stereo not given),.,.,9,5,.,17,4.7
CCn1c(C)nc2cc(C(=O)NNS(=O)(=O)c3cc(Br)ccc3Br)ccc21,-1,-7,2,5,4416,11,9.9
Cc1ccc(NC(=O)COC(=O)C2=NN(c3ccccc3)C(=O)CC2)c(Br)c1,.,-9,0,-7,9092,0,1.6
COCCNc1c([N+](=O)[O-])c(=O)n(-c2ccccc2)c2ccccc12,-4,-15,-5,1,2565,2,-0.4
NC(=S)Cc1nc(-c2ccccc2)cs1,3,-12,12,3,2521,7,2.6
O=C1Nc2ccccc2/C1=C/C(=O)c1cccs1,-4,-6,.,.,4607,94*,98
CCCCCn1c(SCC2CCCO2)nc2cc(C(=O)N3CCC(C(N)=O)CC3)ccc2c1=O (stereo not given),.,0,2,3,9635,-14,1.4
COc1ccc2cc(C=NS(=O)(=O)c3ccc(C)cc3)n(C)c2c1,.,-11,12,7,2911,2,5.2
COc1ccc(C(=O)NCc2nnc(SCC(=O)Nc3ccc4c(c3)OCO4)o2)cc1,-10,-35,11,-2,2148,2,1.4
CCC(C)Sc1ccc([C@H]2N[C@@](Cc3ccccc3)(C(=O)OC)[C@H]3C(=O)N(CC)C(=O)[C@@H]23)cc1 (stereo not given in full),-9,7,.,.,3684,.,.
CN(CC(=O)Nc1ccc(F)cc1)C(=O)C1CCCC1,.,-22,7,-6,4117,0,0.7
O=C(COc1cccc2ccccc12)NNC(=O)CSCCO,-2,-17,7,0,10769,-7,7.0
CSc1sccc1/C=N/NC(=O)c1ccncc1,12,-18,.,.,2575,.,.
O=[N+]([O-])c1ccccc1/C=N/Nc1nccnc1Cl,-1,-54,.,.,22518*,.,.
Cc1ccc(N(CC(=O)NCc2ccccc2)C(=O)CCC(=O)Nc2ccccn2)c(C)c1,-2,-11,16,9,5331,5,0.7
COc1cc(/C=C/C(=O)OCC(=O)Nc2cc(C)c(C)cc2[N+](=O)[O-])ccc1O,0,-3,3,9,3434,17,6.6
CC1(C)NC(=O)N(Cc2cc(=O)n3ccsc3n2)C1=O,-1,-86,-10,4,6062,12,4.5
CCc1ccc(Nc2nc(N)nc(CSc3nc4ccccc4s3)n2)cc1,0,-14,2,0,2418,3,5.1
O=C(COc1ccc2ccc(=O)oc2c1)NC1CCN(Cc2ccccc2)CC1,3,-4,8,8,6316,0,-1.1
CCOc1c(Cl)cc(CNCC(O)c2ccccc2)cc1OC (stereo not given),4,-11,10,8,2115,0,2.6
Cc1ccc(C(=O)/C=C/N(C)C)cn1,0,-23,17,9,3828,5,5.3
COc1ccc(-c2csc3ncnc(N4CCN(Cc5ccccc5)CC4)c23)cc1,5,-6,0,-3,.,-6,-1.0
Cn1cnnc1Sc1nc2c(c(=O)n(C)c(=O)n2C)n1Cc1ccccc1Cl,8,-24,3,8,4541,-3,1.9
O=C1C2C3C=CC(CNS(=O)(=O)c4ccccc4[N+](=O)[O-])(O3)C2C(=O)N1c1ccccc1 (stereo not given),6,-21,2,4,2776,-6,8.6
N#C/C(=C\c1cccnc1)C(=O)Nc1cccc2ccccc12,10,-25,3,3,2733,-1,3.4
CCOc1ccccc1NC(=S)N1CCC(NC(=O)NC23CC4CC(CC(C4)C2)C3)CC1,-3,-23,2,5,7203,-7,-2.7
O=S(=O)(NC1CCCCC1Nc1ccc(Cl)cc1)c1ccccc1 (stereo not given),2,-12,-8,6,2195,-14,2.4
CN(C)c1cc(-c2cccc(C(F)(F)F)c2)oc(=O)c1Cl,9,-12,-4,1,4098,2,2.4
N#Cc1nc(COc2cccc(Cl)c2)oc1NCCN1CCOCC1,-3,-21,17,12,3297,0,4.3
COc1ccnc(Nc2cccc(C)c2)c1C#N,-6,-27,15,6,9448,4,4.3
CC(C)(C)N=C(NS(=O)(=O)c1cccs1)c1ccccc1,-6,-21,9,7,6205,2,1.9
CN(C)CCN1CCc2ccccc21,6,-5,9,16,3391,-2,0.7
CCn1cc(Br)c(C(=O)Nc2sc3c(c2C(N)=O)CCCC3)n1,-2,-10,-3,0,6031,-1,7.4
O=CC(=O)c1ccccc1,.,0,-2,1,4257,4,3.8
COCCNCC(=O)N1c2ccccc2Sc2ccccc21,-8,-12,-3,2,4292,2,0.5
Cc1ccc(C)c(C(=O)CSc2nc(N)cc(=O)[nH]2)c1,-5,20,-5,4,4173,-2,-3.7
C=CCNC(=O)c1ccccc1S(=O)c1ccccc1C#N (stereo not given),8,-26,.,.,2714,4,-2.8
COc1ccccc1N1CCN(C(=O)CCNS(=O)(=O)c2ccc3c(c2)CCC(=O)N3)CC1,5,-14,-3,0,9129,-3,-0.7
Cn1c(N2CCOCC2)c(C=O)c2ccccc21,3,-7,6,5,3762,3,1.2
CC(=O)N1CC(=O)N=C1SCC(=O)Nc1nc(-c2ccccc2)c(-c2ccccc2)s1,-19,-7,.,.,1953,.,.
Cc1c(CCO)sc[n+]1CC(=O)OC12CC3CC(CC(C3)C1)C2,-4,-3,7,4,2057,8,4.9
COc1ccc(/C=N/Nc2nncc3ccccc23)cc1,44,50,.,.,1984,.,.
CCOC(=O)CCCNC(=O)COC(=O)CCC(=O)c1ccc(F)cc1,3,-19,5,-1,3845,4,-2.3
Cc1cccc(CN2CCN(CC(=O)NCCCN3CCCC3=O)C2=O)c1,0,-1,.,.,2251,1,3.6
Cc1ccc(S(=O)(=O)NCc2ccc(C(=O)NC3CCCCC3)cc2)cc1,11,-22,14,3,6213,8,0.0
CCc1ccc2[nH]cc(C(=O)N3CCCCCC3)c(=O)c2c1,-5,-19,6,9,6325,1,-0.1
CCOC(=O)C(NC(C)=O)(NS(=O)(=O)c1ccccc1)C(F)(F)F (stereo not given),4,-11,.,.,4040,4,11
Nc1nc(N)nc(-c2cc(Cl)ccc2Cl)n1,7,7,5,3,5913,2,4.6
O=C1CC(N(O)c2ccccc2)C(=O)N1c1cc(Cl)cc(Cl)c1 (stereo not given),-2,-12,15,7,3863,1,-1.0

# An excerpt of these results, with values under each structure.
# Order of values – BJeLR viability, PrP 5UTR inh, Mtb hypoxia inh, Mtb hypoxia inh growth, Autofluor counter, Sa ugtP lethal, Sa RN4220 lethal
> Cc1ccc(S(=O)(=O)NCc2ccc(C(=O)NC3CCCCC3)cc2)cc1
 : 11, -22, 14, 3, 6213, 8, 0.0
> Cc1c(CCO)sc[n+]1CC(=O)OC12CC3CC(CC(C3)C1)C2
 : -4, -3, 7, 4, 2057, 8, 4.9
> O=C1CC(N(O)c2ccccc2)C(=O)N1c1cc(Cl)cc(Cl)c1 (stereo not given)
 : -2, -12, 15, 7, 3863, 1, -1.0

# Later entries.
SMILES,BJeLR viability,PrP 5UTR inh,Mtb hypoxia inh,Mtb hypoxia inh growth,Autofluor counter,Sa ugtP lethal,Sa RN4220 lethal
Cc1occc1C(=O)N/N=C/c1ccc(Cl)c([N+](=O)[O-])c1,10,10,.,.,1944,.,.
COc1cccc(NC(=O)COC(=O)c2c(C)nn(-c3ccccc3)c2C)c1,.,-11,5,1,6724,5,-0.1
Cc1ccc(NC(=S)N2CCN(S(=O)(=O)c3ccccc3)CC2)cc1C,.,-6,6,15,5527,-1,-0.2
COC(=O)c1ccc(C=NNC(=S)NC(C)C)cc1,.,.,18,16,.,2,5.8
O=C(NCC(c1cccnc1)N1CCN(c2ccccc2F)CC1)Oc1ccccc1 (stereo not given),-6,-14,14,8,3497,-1,-11
CC(=O)Nc1nnc(SCc2ccc(C(=O)Nc3ccccc3F)cc2)s1,-1,-23,7,-6,4670,5,4.3
Cc1nnc2ccc(-c3ccc(NC(=O)Cc4cccs4)cc3)nn12,0,-20,-1,5,5565,9,4.7
O=C(CCn1c(=O)c2cccn2c2ccccc21)Nc1ccc(F)cc1,-1,-21,-3,9,7175,-6,-0.1
COc1ccccc1NC(=O)c1cc2n(n1)C(C(F)(F)F)CC(c1ccc3c(c1)OCO3)N2 (stereo not given),-5,4,6,-28,2978,2,22
O=C(CN1CCCCC1)Nc1nnc(-c2ccc([N+](=O)[O-])cc2)s1,-1,-17,-11,12,.,-16,12
O=C(COC(=O)c1ccccc1O)NCc1ccco1,.,-11,5,6,3680,-2,2.4
CN1CCN(c2ccc(NC(=O)c3cc([N+](=O)[O-])ccc3N3CCOCC3)cc2)CC1,-2,-20,11,7,4808,2,2.5
CCOC(=O)C1=C(O)/C(=C\c2ccc(OC)c(OC)c2)N=C1C,-10,-8,0,1,12404,-2,1.2
O=C(NCc1n[nH]c(=O)c2ccccc12)C1CC(=O)N(c2ccc(Cl)cc2)C1 (stereo not given),-1,-25,-3,9,5959,-2,-2.4
Cn1cc(CN2CCC(C(O)CCc3ccccc3)CC2)c(-c2ccccc2F)n1 (stereo not given),-8,-8,5,12,2562,4,1.3
CCCN1C(=O)c2cc(C(=O)Nc3ccc(OC)cc3OC)ccc2C1Nc1ccc(OC)cc1OC (stereo not given),7,-12,-2,9,2037,-26,4.1
O=c1[nH]c(=O)n(Cc2ccc(Oc3ccccc3)cc2)cc1Br,5,-26,.,.,3043,.,.
Cc1cc(C(F)(F)F)nn1C(=O)c1cccnc1Cl,2,-6,2,13,2463,-7,-2.6
CCN1CCN(C(=O)Cn2ncc3c([nH]c4ccc(C)cc43)c2=O)CC1,-19,-12,3,-2,6105,6,3.4
COC(=O)c1[nH]c2ccc(Br)cc2c1NC(=O)Oc1ccccc1,4,-15,.,.,4690,-1,1.0
COc1ccc(S(=O)(=O)N2CCCCC2)cc1NC(=O)C1CCCO1 (stereo not given),-5,-19,5,-5,4705,5,0.1
O=C(c1ccccc1)N1CCN(c2ccccc2)CC1,.,-2,12,10,2922,6,5.6
CN(C(=O)CSc1cc(C(=O)c2nccn2C)c2ccccc2n1)c1ccccc1,2,1,10,11,4578,13,4.0
CC1=NNC(=O)C1CC(=O)N/N=C/C(C)=C/c1ccccc1 (stereo not given),-6,-20,.,.,2576,.,.
Cc1cccc(C)c1OCCN1C(=O)NC(C)(c2ccccc2)C1=O (stereo not given),3,-18,20,8,4504,3,9.7
O=C(NC(=S)NCc1cccnc1)c1ccccc1[N+](=O)[O-],-1,-8,6,3,3278,3,2.7
Cc1ccccc1NC(=S)NC(C)CCc1ccccc1 (stereo not given),-3,6,-9,-10,6405,10,0.3
Cc1cnccc1CN(C)C(=O)C1CCC(=O)N(Cc2ccccc2F)C1 (stereo not given),9,-10,9,-2,5143,7,2.3
CCN(CC)S(=O)(=O)c1ccc(-c2nnc(SCC(=O)N3CCc4ccccc43)o2)cc1,18,-4,15,6,5214,3,3.2
Cc1c(CC(=O)O)c(=O)oc2cc(OCc3ccc(F)cc3F)ccc12,-12,-8,2,-6,4102,2,3.5

# 6 entries out of the list, ordered by heavy-atom count, ascending:
SMILES,BJeLR viability,PrP 5UTR inh,Mtb hypoxia inh,Mtb hypoxia inh growth,Autofluor counter,Sa ugtP lethal,Sa RN4220 lethal
O=C(c1ccccc1)N1CCN(c2ccccc2)CC1,.,-2,12,10,2922,6,5.6
Cc1ccccc1NC(=S)NC(C)CCc1ccccc1 (stereo not given),-3,6,-9,-10,6405,10,0.3
O=C(NC(=S)NCc1cccnc1)c1ccccc1[N+](=O)[O-],-1,-8,6,3,3278,3,2.7
COc1ccc(S(=O)(=O)N2CCCCC2)cc1NC(=O)C1CCCO1 (stereo not given),-5,-19,5,-5,4705,5,0.1
CN(C(=O)CSc1cc(C(=O)c2nccn2C)c2ccccc2n1)c1ccccc1,2,1,10,11,4578,13,4.0
CCN(CC)S(=O)(=O)c1ccc(-c2nnc(SCC(=O)N3CCc4ccccc43)o2)cc1,18,-4,15,6,5214,3,3.2

# (listing goes on)
SMILES,BJeLR viability,PrP 5UTR inh,Mtb hypoxia inh,Mtb hypoxia inh growth,Autofluor counter,Sa ugtP lethal,Sa RN4220 lethal
COC(=O)c1ccc(CNC(=O)CSc2nnc(COc3ccccc3)n2C)o1,3,-10,2,-1,2468,2,4.8
Cc1ccccc1NC(=S)Nc1cccc2cnccc12,5,-16,13,9,4058,2,0.6
CCn1cc(C(=O)N2CCN(c3ccc(OC)cc3)CC2)c(=O)c2cc(S(=O)(=O)N3CCCCC3)ccc21,-7,-11,15,6,4594,1,2.4
Cc1nc(SCc2nc3ccccc3[nH]2)c2oc3cc(Br)ccc3c2n1,.,-4,3,4,3894,-8,-7.9
CCN1C(=O)[C@H]2[C@H]3CN=C(SCc4ccc(Cl)cc4)N3[C@@](C)(C(=O)OC)[C@H]2C1=O,.,-7,1,1,3600,1,4.1
